# High-throughput results: PubChem BioAssay, National Center for Advancing Translational Sciences (NCATS)
# D2 potentiator: positive allosteric modulators of human D2 dopamine receptor | potentiation, % (test concentration not listed) | DiscoveRx D2 beta-arrestin cells, luminescence, 90 min; 100% = 57 uM dopamine signal | AID 624464 | P14416 | actives 0.23% (n = 360,000); active = potentiation of 50% or more; inconclusive = 30% to 50%; inactive = 30% or less;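 note: compound concentration not given in the record; tested on top of an EC20 dose of dopamine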
#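 PathHunter beta-arrestin assay in DiscoveRx D2 cells. Compounds were added with an EC20 of dopamine (50 nM final) for 90 min at 37 deg C. Luminescence was read 1 h after detection reagent, with 57 uM dopamine as the EC100 control.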
# gsp antag: antagonizes gsp, the McCune-Albright syndrome mutation | AID 624288 | Potency, µM (highest dose often 76.9 µM), for the others: at the highest dose activity change, negative = inhibition, most hits filed as inhibitors | actives 0.4% (n = 340,000) | gsp-mutant cells, cAMP HTRF, 30 min; control for the full effect not named in the record; active = falling curve of any shape with a large fitted effect; inconclusive = falling curve, mostly with a smaller effect; inactive = flat or rising curve; cell line not stated here;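 note: intracellular cAMP measured with PDE inhibitor Ro 20-1724 present during compound exposure; potency is the fitted concentration of half-maximal effect; % is set by controls: 0 for no effect and ±100 for the full control effect; nearly all actives have a fitted effect of over 65% in size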
#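 HTRF cAMP measurement after 30 min RT detection following 30 min, 37C compound treatment alongside […] (added as 300 uM solution) in G418-selected cells seeded at 2000/well and grown 16–24 h.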
# ClpP mod: qHTS Assay for Activators of ClpP; ATP-dependent Clp protease proteolytic subunit (Bacillus subtilis (strain 168)), P80244; purified B. subtilis ClpP, FRET peptide cleavage, 20 min; Potency, µM (series often up to 57.5 µM), without a hit: at the top dose activity change, negative = active; actives 1.9% (n = 340,000); active = well fitted falling curve with a large enough effect; inconclusive = small, poorly fitted or top-dose-only effect; inactive = no such curve, though single readings can be large or run the other way; note: potency is the fitted concentration of half-maximal effect; the source files actives as falling curves though it sought activators and does not explain the sign; nearly all actives have a fitted effect of over 65% in size; many hits overshoot -100%
# Target sequence (P80244 whole entry, looked up): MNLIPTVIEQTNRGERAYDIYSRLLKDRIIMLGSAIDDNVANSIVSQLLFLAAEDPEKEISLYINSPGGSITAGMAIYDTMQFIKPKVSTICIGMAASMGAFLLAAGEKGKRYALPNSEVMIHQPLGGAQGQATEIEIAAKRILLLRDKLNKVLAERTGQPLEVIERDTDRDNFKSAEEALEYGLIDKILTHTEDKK
#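 Buffer: 100 mM Tris/HCl pH8, 100 mM KCl, 0.05% low protease BSA, 2.5% glycerol, 0.01% Tween-20. ClpP 10 microg/mL final; 20 min RT; delta FRET normalized to ADEP and DMSO controls.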
# gsp ag: activates gsp, the McCune-Albright syndrome mutation; Potency, µM (highest dose often 76.9 µM), for the others: top-dose activation (cAMP increase), hits mostly activators; actives 0.13% (n = 340,000); gsp mutant cells, cAMP HTRF, 30 min; control for the full effect not named in the record; active = well fitted activation curve with a large enough effect; inconclusive = small, poorly fitted or top-dose-only effect, or another doubt; inactive = no such curve, though single readings can be large or run the other way; cell line not stated here;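 note: phosphodiesterase inhibitor Ro 20-1724 added with compounds to block cAMP breakdown; potency is the fitted concentration of half-maximal effect; nearly all actives have a fitted effect of over 60% in size; about a fifth of the inactives were tested at one dose only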
#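 Cells stably selected in G418 were plated at 2000/well, grown 16-24 hr, then given compounds in DMSO with the PDE inhibitor […] (300 uM solution added) for 30 min at 37C; cAMP was read by HTRF.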
# TRPV1 potentiator: potentiators of human vanilloid receptor 1 (TRPV1); actives 0.02% (n = 320,000); Q8NER1; AID 540277; potentiation, % at 8.33 µM; TRPV1-expressing cells, Fluo-8 calcium influx, capsaicin EC20 potentiation; host cell line not named in the record; control for the full effect not named in the record; active means potentiation above 80%; inconclusive means 30% to 80%; inactive means below 30%; note: 0% is about no effect
# Target sequence (Q8NER1 whole entry, looked up): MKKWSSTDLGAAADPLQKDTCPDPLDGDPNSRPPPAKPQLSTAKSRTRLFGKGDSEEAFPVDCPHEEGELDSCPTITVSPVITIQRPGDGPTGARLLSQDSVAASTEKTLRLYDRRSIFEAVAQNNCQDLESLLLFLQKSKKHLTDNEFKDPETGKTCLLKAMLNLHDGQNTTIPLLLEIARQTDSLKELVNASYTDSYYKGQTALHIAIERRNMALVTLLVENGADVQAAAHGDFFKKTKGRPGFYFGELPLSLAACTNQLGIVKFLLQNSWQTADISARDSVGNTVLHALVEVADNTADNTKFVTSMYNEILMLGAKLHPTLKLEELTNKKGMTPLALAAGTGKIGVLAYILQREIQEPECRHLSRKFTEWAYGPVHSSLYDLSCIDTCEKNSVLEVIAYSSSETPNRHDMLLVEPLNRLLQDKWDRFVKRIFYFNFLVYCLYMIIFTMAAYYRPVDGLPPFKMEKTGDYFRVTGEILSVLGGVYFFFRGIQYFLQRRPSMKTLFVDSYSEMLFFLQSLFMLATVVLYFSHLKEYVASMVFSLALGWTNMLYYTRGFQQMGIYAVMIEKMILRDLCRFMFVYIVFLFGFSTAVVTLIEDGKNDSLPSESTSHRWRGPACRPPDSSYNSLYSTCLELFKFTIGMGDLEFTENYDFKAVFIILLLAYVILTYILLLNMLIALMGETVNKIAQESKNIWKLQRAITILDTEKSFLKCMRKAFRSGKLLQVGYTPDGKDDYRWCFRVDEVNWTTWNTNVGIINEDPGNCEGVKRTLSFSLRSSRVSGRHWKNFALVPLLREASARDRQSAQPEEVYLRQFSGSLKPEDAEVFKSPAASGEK
#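 Fluo-8 calcium influx in TRPV1-expressing cells, kinetic read (ex 480/em 520 nm). Compound added and read 3 min for agonist activity, followed by capsaicin at EC20 final and 2 min further read for enhancement.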
# Sfp PPTase inh: blocks B. subtilis Sfp PPTase activity; Biochemical Sfp PPTase activity, qHTS; Q9F4F7; AID 1490; actives 3.5% (n = 310,000); Potency, µM, without a hit: max response, negative = inhibition, actives largely listed as inhibitors; active = well fitted inhibition curve with a large enough effect; inconclusive = small, poorly fitted or top-dose-only effect, or another doubt; inactive = no such curve, though single readings can be large or run the other way;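 note: the enzyme is Sfp with the accession as filed and its product quenches rhodamine fluorescence; potency is the fitted concentration of half-maximal effect; 0% = enzyme reaction without inhibitor and -100% = no enzyme wells; top concentration of the series not given in the record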
#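 Sfp 15 nM + cpd, 15 min RT; start w/ rhodamine-CoA 5 uM, BHQ-2-YbbR 12.5 uM (final); 50 mM Hepes pH 7.6, 10 mM MgCl2, 0.01% NP-40, 0.01% BSA; read 525/598 nm at 0 and 30 min.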
# Menin MLL FP FL: inhibitors of human menin-MLL interaction, wild-type MLL peptide; Fluorescence polarization, fluorescein-MLL peptide displacement from menin; FP activity change, % at 61.4 µM; 290,000 tested, under 10 active; inconclusive = falling polarisation curve, or a change in total fluorescence; inactive = total fluorescence flat and polarisation flat or rising; no compound was filed as active; the % refers to the polarisation; negative = inhibition;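 note: % of control where 0% means no effect; inhibitors lower the polarisation; unlabelled MLL peptide was the positive control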
# Numbers without * were called inactive; ? = inconclusive; · = not tested or not shown; & = joins results of further samples; [ ] = remark or other dose.
SMILES,D2 potentiator,gsp antag,ClpP mod,gsp ag,TRPV1 potentiator,Sfp PPTase inh,Menin MLL FP FL
COc1ccc(OCc2nnc(SCc3ccc(C(=O)O)cc3)o2)cc1,-18,·,·,6%[15.4 µM],13,7%,-0.3
CCC(C(=O)c1ccccc1)P(=O)(NN)c1ccccc1 (stereo not given),-8,15%,1.1%,-4%[15.4 µM],9,10%,-1.1
Cn1c(=O)c2c(nc(Cc3ccc(N)cc3)n2C)n(C)c1=O,2,7%,·,?,-1,-2%,-3.4
Cc1nc(CN2CCN(S(=O)(=O)c3c(Cl)cc(Br)cc3Cl)CC2)cs1,8,-2%,0.7%,13%,-5,·,·
CCOc1ccc(NC(=O)c2ccc(CC)s2)c([N+](=O)[O-])c1,7,-5%,-19%,7%[15.4 µM],18,9%,-1.3
CCc1ccc[n+](-c2[nH]c(=O)sc2/C=N/N=C(\N)[O-])c1,-2,4%,·,14%,?,?,-4.6
Cc1cccc(NC(=O)Nc2ccc(S(N)(=O)=O)cc2)c1,-1,4%,·,20%,3,4%,1.0
COc1ccc(NC(=O)c2ccc(NC(=O)c3nc4nc(C)cc(C)n4n3)cc2)cc1,-67,4%,·,-8%[15.4 µM],-8,·,·
COc1ccc(C2C(C(=O)OCC3CCCO3)=C(C)NC3=C2C(=O)CC(c2ccco2)C3)cc1O (stereo not given),2,1%,-7.7%,11%,8,56µM*,-2.8
O=C(Nc1cccc(-c2cccc(F)c2)c1)C1CCN(Cc2ccco2)CC1,-31,8%,0.3%,21%,-10,-8%,·
Cc1ccc(NC(=S)N2CCN(c3ncccn3)CC2)cc1C,-7,1%,-5.2%,11%,-1,39%[activator],3.2
O=C(CN1C(=O)NC2(CCCC2)C1=O)Nc1ccccc1C(F)(F)F,-3,8%,·,-1%,-4,30%,·
CCC1Oc2ccccc2N(CC(=O)NCCN2CCCC2)C1=O (stereo not given),-21,20%,0.4%,-3%,9,6%,·
O=C(NCc1cccc(C(F)(F)F)c1)c1cc(-c2ccccc2)nn1CC1CC(c2cccnc2)=NO1 (stereo not given),-37,0%,-3.7%,·,·,·,·
CCCCOc1ccc(C2=NNC(=O)CC2)cc1,22,7%,-5.3%,-86%,-6,6%,0.0
O=C(Oc1oc(-c2ccco2)nc1C=Nc1ccccc1)c1ccco1,-2,-11%,-1.4%,?,8,11µM*,1.9
COc1ccc(NS(=O)(=O)c2ccc(C)c(NC(=O)CN3C(=O)NC4(CCCC4)C3=O)c2)cc1,0,11%,-2.2%,?,-3,·,·
O=C(CCN1C(=O)COc2ccccc21)N1CCCCC1,-1,9%,-2.4%,?,-1,18%,0.7
COc1cc([N+](=O)[O-])ccc1NC(=O)CC1SC(=Nc2ccc(F)cc2)N(CCC2=CCCCC2)C1=O (stereo not given),-4,20%,-0.1%,7%,-6,9%,5.3
CC1CCCCC1NC(=O)CSc1nnc(N)s1 (stereo not given),-15,12%,0.4%,-4%,10,14%,2.8
CC(C)(C)c1ccc(/C=N/Nc2ccc(C(=O)O)cc2)cc1,-21,1%,-11%,6%,2,9%,0.7
O=C(NCC1CCCO1)C1CCCN(c2ncccn2)C1 (stereo not given),-5,9%,-16%,3%,2,26%,-0.2
CC1(C)CC(=O)C(C(=S)Nc2ccccc2)=C(NC2CC(C)(C)NC(C)(C)C2)C1,-9,14%,·,-8%[15.4 µM],-2,12%,-1.7
Cc1[nH]nc(Nc2ccc(C(C)C)cc2)c1[N+](=O)[O-],-8,-23%,·,15%[15.4 µM],-11,12%,-1.1
CCOc1ccc(S(=O)(=O)N(CC(=O)NN=C2CCN(C)CC2)c2ccc(C)cc2)cc1,-5,10%,-3.5%,-18%,6,5%,·
O=C(COc1ccc(S(=O)(=O)N2CCOCC2)cc1)NC1CC1,-3,6%,·,?,-11,12%,-6.2
COc1cccc(CN2CCN(C3CCN(c4ccccc4C)CC3)CC2CCO)c1 (stereo not given),-8,-4%,1.1%,-22%,3,-1%,-7.9
COc1ccc(CN2C[C@H](C)[C@@H](CC(=O)NCc3ccccc3)C2=O)cc1,-5,1%,-1.5%&0.8%,14%,3,9%,2.0
O=C1CCC(=O)N1OCCOc1ccccc1,5,-15%,·,?,5,12%,1.5
CC1CCCC(NC(=O)CSc2nnc(N)s2)C1C (stereo not given),-13,11%,-0.7%,-16%,-7,1%,-4.3
CCOCCCNCc1ccc(OCC(=O)N2CCOCC2)c(OC)c1,0,4%,0.0%,-5%,29,5%,1.6
COc1ccc2nc(N(CCN(C)C)C(=O)c3ccc4c(c3)OCCO4)sc2c1,-16,6%,-3.6%,6%,2,6%,·
CN1CCN(Cc2cc(Cl)c3cccnc3c2OC(=O)c2cccs2)CC1,-3,14%,0.2%,-2%,-2,20%,4.1
CC(=O)c1ccc(NC(=O)Cn2cnc(S(=O)(=O)N3CCOCC3)c2)cc1,-8,19%,-0.1%,-23%,-1,10%,·
COc1ccccc1-c1oc2ccccc2c1C#CCCO,-7,-8%,4.0%,8%,-4,·,·
O=C(Nc1ccc(F)cc1)N(Cc1nnc2n1CCCCC2)c1ccccc1,-2,-11%[15.4 µM],-5.1%,-21%,-10,6%,3.1
CC(=O)C1=C(C)NC(SCC(=O)c2ccccc2)=C(C#N)C1c1ccco1 (stereo not given),·,·,·,·,-8,56µM*,7.7
COc1ccc(C2c3cc4c(cc3OC(NNC(N)=O)C2C)OCO4)cc1 (stereo not given),-8,-1%,-3.1%,1%,·,·,·
Clc1cccc(-c2nn3c(COc4ccccc4)nnc3s2)c1,·,·,·,·,-16,12%,-0.3
Cc1ccc(C(=O)CN2C(=O)c3ccccc3S2(=O)=O)cc1,-2,4%,·,0%,·,20%,-0.8

# Part of the list above in order of SMILES length, ascending:
SMILES,D2 potentiator,gsp antag,ClpP mod,gsp ag,TRPV1 potentiator,Sfp PPTase inh,Menin MLL FP FL
O=C1CCC(=O)N1OCCOc1ccccc1,5,-15%,·,?,5,12%,1.5
CN1CCN(Cc2cc(Cl)c3cccnc3c2OC(=O)c2cccs2)CC1,-3,14%,0.2%,-2%,-2,20%,4.1
CC1(C)CC(=O)C(C(=S)Nc2ccccc2)=C(NC2CC(C)(C)NC(C)(C)C2)C1,-9,14%,·,-8%[15.4 µM],-2,12%,-1.7

# Other compounds:
SMILES,D2 potentiator,gsp antag,ClpP mod,gsp ag,TRPV1 potentiator,Sfp PPTase inh,Menin MLL FP FL
Cc1cccc(C)c1NC(=O)CN(C)C(=O)CCc1nc2sc3c(c2c(=O)[nH]1)CCCC3,-9,-15%,-3.4%,-8%,4,·,·
CC(=O)Nc1ccc(C2Nc3ccccc3C(=O)N2C2CCCCC2)cc1 (stereo not given),-2,-6%,28µM*,-22%,25,12%,0.9
O=C(c1ccco1)n1c(=S)nc2ccccn21,-1,1%,-6.9%,12%,3,-21%,-0.3
O=[N+]([O-])c1ccc(NCCNc2ccc(Cl)nn2)cc1,11,-7%,0.7%,-34%[inhibitor],-10,17%,1.6
C[N+](C)(C)c1ccc(/C=N/Nc2nc(Cl)c(C#N)c(Cl)c2Cl)cc1,-28,-22%,-0.9%,-33%[inhibitor],-1,-7%,7.0
Cc1ccc2c(c1)nnn2C1CCN(S(=O)(=O)c2ccc(C(=O)N(C)C3CCCCC3)cc2)CC1,3,-12%,-3.9%,-3%,-5,-4%,0.2
COc1ccc(-c2c(C(C)=O)c(C)nc3sc4c(c23)NC(c2ccccc2)NC4=O)cc1 (stereo not given),10,7%,6.8%,31%,-6,-13%,2.4
Cc1ccc(C(=O)NCC(=O)OCc2c(F)cccc2Cl)cc1,-14,-4%,-2.5%,-44%,-13,·,·
COc1ccc(NC(=O)CN2CCCC2c2cccs2)cc1S(=O)(=O)N1CCCCC1 (stereo not given),0,35µM*,-1.9%,17%,-1,·,·
CCN(Cc1ccncc1)C(=O)CC1C(=O)NCCN1Cc1ccc(F)c(F)c1 (stereo not given),1,-17%,-3.9%,-28%,-1,79µM*,?
CCOc1ccc(CN(C)C(=O)CNC(=O)C2CCCCC2)cc1OC,-6,1%,·,-15%,-25,-2%,-11
COc1cc(S(=O)(=O)Nc2ccc(C)cc2)ccc1N=Cc1c(C)[nH]n(-c2ccccc2)c1=O,3,-1%,-2.5%,-4%[15.4 µM],9,9%,-3.7
CCCCCCC(=O)Nc1nc(C)c(-c2csc(Nc3ccccc3OC)n2)s1,-14,-3%,?,·,14,?,10
O=C(O)C(c1ccccc1)N1C(=O)/C(=C/c2cccs2)SC1=S (stereo not given),-3,3%,·,-25%[15.4 µM],9,-13%,7.1
COc1ccc(Br)c(C(=O)NCC2CCCCC2)c1,-5,26%,·,-2%[15.4 µM],12,5%,-8.5
O=C(NC(=S)Nc1ccc(O)cc1)C1CCCC1,0,-4%,3.1%,3%,4,·,·
O=C(NC1CCSc2ccccc21)c1ccc([N+](=O)[O-])cc1 (stereo not given),13,9%,1.0%,13%,-15,18%,·
COc1ccccc1NC(=O)Nc1cccc(NC(C)=O)c1,-12,-1%,-3.6%,-20%,6,9%,0.9
COCC(C)NCc1cccc2ccccc12 (stereo not given),-14,5%,-3.1%,19%,-9,-14%,-0.2
N#Cc1ccccc1NC(=O)COc1c(Br)cc(Br)c2cccnc12,-4,1%,·,?,-2,4%,5.1
Cn1c(=O)n(C)c2cc(NC(=O)c3ccccc3[N+](=O)[O-])c(Br)cc21,1,5%,·,25%,2,8%,-2.9
Fc1cccc(CCN2CCNC[C@@H]2c2ccccc2)c1,-11,0%,-4.5%,·,1,·,·
Cc1ccc(S(=O)(=O)N2CCOCC2)cc1NC(=O)COC(=O)Cc1ccccc1,5,-1%,·,-11%,·,·,·
COc1ccc(S(=O)(=O)NCc2ccco2)cc1C(=O)N1CCCCC1,9,·,·,-3%[15.4 µM],-6,16%,0.9
COc1ccccc1CNC(=O)C1CCC(=O)N(CCCN2CCCC2=O)C1 (stereo not given),-6,9%,1.6%,-52%[inhibitor],2,26%,-3.9
CC(=O)c1cccc(NS(=O)(=O)c2ccc(C(=O)Nc3ccccc3)cc2)c1,11,-32%,1.4%,18%,-9,3%,·
N#CC(c1ccc(Cl)cc1)c1cccc(Cl)n1 (stereo not given),-2,-7%,·,-57%[inhibitor],-2,10%,4.2
CC(=O)NC12CC3CC(C1)CC(C(=O)OCC(=O)Nc1ncc(Cl)cc1Cl)(C3)C2,-4,-12%,-1.5%,12%,-29,4%,4.2
